Vaccinia stage – blocks a specific stage of Vaccinia orthopoxvirus infection | Vaccinia-infected cells, mCherry/Venus stage reporter fluorescence; hits give low values; some inactives read as strong as hits | activity change (mCherry), % (no concentration beside the values) | hit rate 0.01% among 89,000;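 active = mCherry past -33% and 40 or more points under the early reporter, replicates agreeing; inconclusive = past -33% without that gap or agreement; tested in A549 cells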;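 also: scaled between vehicle wells and reference inhibitor wells; 23 nL library stock went into each well; one replicate is shown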
Vaccinia stage Venus – further read-out of Vaccinia stage, marked with its call; activity change (Venus), %; measured here: Venus reporter, other viral stage;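 negative = less Venus signal; first of two replicates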
* hit, by the source's call; ? = inconclusive; · = no result given. Only part of the results is shown; the hit share may differ from the screen's.

no.	Compound	Vaccinia stage	Vaccinia stage Venus
1	Cc1noc(C)c1NC(=O)Nc1ccc2c(c1)C(=O)N([C@H](C)CO)C[C@H](C)[C@H](CN(C)C(=O)CCCN(C)C)OCCCC[C@H](C)O2	24	15
2	C[C@@H]1CN([C@H](C)CO)C(=O)Cc2cc(NS(=O)(=O)c3cccs3)ccc2O[C@H]1CN(C)S(C)(=O)=O	0	1
3	C[C@@H]1CN([C@H](C)CO)C(=O)Cc2cc(NC(=O)Cn3cnnn3)ccc2O[C@H]1CN(C)S(=O)(=O)c1ccccc1	17	2
4	O=C(C1CCOCC1)N1CC(=O)N2[C@H](CO)[C@@H](c3ccc(Br)cc3)[C@H]2C1	13	9
5	CN(C)CCCNC(=O)[C@H]1[C@H](CO)[C@H]2Cn3c(cccc3=O)[C@H]2N1C(=O)Nc1ccccc1	-18	-12
6	C/C=C/c1ccc([C@@H]2[C@@H](CO)N(C(=O)c3cnccn3)C23CN(C(=O)C2CC2)C3)cc1	-7	0
7	C[C@@H]1CN([C@@H](C)CO)C(=O)Cc2cc(NC(=O)Nc3ccccc3)ccc2O[C@@H]1CN(C)CC1CC1	12	11
8	CO[C@H]1CN(C)C(=O)c2ccc(NS(C)(=O)=O)cc2OC[C@@H](C)N(Cc2cncnc2)C[C@@H]1C	8	8
9	C[C@H](CO)N1C[C@H](C)[C@@H](CN(C)Cc2ccc(C(=O)O)cc2)Oc2c(cccc2N(C)C)C1=O	-1	-1
10	CCCC#Cc1cnc2c(c1)C(=O)N([C@H](C)CO)C[C@H](C)[C@@H](CN(C)CCC)O2	-3	-2
11	C[C@H]1CN([C@@H](C)CO)C(=O)c2cccc(NC(=O)c3nc4ccccc4s3)c2O[C@H]1CN(C)CC1CCCCC1	-27	-19
12	O=C(N[C@H]1CC[C@@H](CCn2cc(C3CCCCC3)nn2)O[C@H]1CO)c1cccnc1	-1	3
13	C[C@H](CO)N1C[C@H](C)[C@H](CN(C)Cc2ccc(C(F)(F)F)cc2)Oc2ccc(NC(=O)CCN3CCOCC3)cc2CC1=O	-12	-8
14	COc1ccc(NC(=O)N[C@H]2CC[C@H](CCn3cc(C4(O)CCCC4)nn3)O[C@@H]2CO)cc1	1	1
15	C[C@H]1CN([C@@H](C)CO)C(=O)c2cc(NC(=O)C3CC3)ccc2O[C@H]1CN(C)Cc1ccncc1	22	4
16	C/C=C/c1cnc2c(c1)C(=O)N([C@H](C)CO)C[C@H](C)[C@@H](CN(C)C(=O)Nc1c(C)noc1C)O2	24	24
17	CO[C@H]1CN(C)C(=O)c2ccc(NS(=O)(=O)CC(F)(F)F)cc2OC[C@H](C)N(CC2CCCCC2)C[C@@H]1C	9	0
18	O=C(C[C@H]1C=C[C@@H](NC(=O)CC2CC2)[C@H](CO)O1)NCC(F)(F)F	4	3
19	CCC(=O)N(C)C[C@H]1Oc2ncc(Br)cc2C(=O)N([C@@H](C)CO)C[C@@H]1C	15	8
20	CC(C)NC(=O)N(C)C[C@@H]1Oc2c(NC(=O)c3ccc(-c4nccs4)cc3)cccc2C(=O)N([C@H](C)CO)C[C@H]1C	9	8
21	CCC(=O)N(C)C[C@@H]1Oc2cc(-c3ccccc3)ccc2S(=O)(=O)N([C@H](C)CO)C[C@@H]1C	7	-7
22	C[C@H](CO)N1C[C@H](C)[C@H](CN(C)C(=O)CCCN(C)C)OCCCC[C@H](C)Oc2ccc(NC(=O)Nc3ccc(F)cc3)cc2C1=O	15	10
23	C[C@@H]1CN([C@H](C)CO)C(=O)c2cc(NC(=O)CCC(F)(F)F)ccc2O[C@@H](C)CCCCO[C@H]1CN(C)S(=O)(=O)c1ccc(Cl)cc1	?	·
24	C[C@H]1CN([C@@H](C)CO)C(=O)Cc2cc(NC(=O)Nc3ccc(F)cc3)ccc2O[C@@H]1CN(C)Cc1ccc(-c2ccccc2)cc1	4	4
25	CC=Cc1ccc2n(c1=O)C[C@@H]1[C@@H](CO)[C@H](C(=O)OC)[C@H]2N1CC1CCCC1 (mixture of isomers)	6	6

Another view of part of the listing above.
16: C/C=C/c1cnc2c(c1)C(=O)N([C@H](C)CO)C[C@H](C)[C@@H](CN(C)C(=O)Nc1c(C)noc1C)O2
15: C[C@H]1CN([C@@H](C)CO)C(=O)c2cc(NC(=O)C3CC3)ccc2O[C@H]1CN(C)Cc1ccncc1

| entry no. | 16 | 15 |
| --- | --- | --- |
| Vaccinia stage | 24 | 22 |
| Vaccinia stage Venus | 24 | 4 |

(further entries)
no.	Compound	Vaccinia stage	Vaccinia stage Venus
26	CNC[C@H]1OCCCC[C@@H](C)Oc2ccc(NC(=O)Nc3c(C)noc3C)cc2C(=O)N([C@@H](C)CO)C[C@@H]1C	16	18
27	CN1C(=O)c2cc(NC(=O)c3ccc(F)cc3)ccc2OC[C@@H]2O[C@H](CC(=O)NC3CCC3)CC[C@H]21	-17	-3
28	Cc1ccc(S(=O)(=O)Nc2ccc3c(c2)C(=O)N([C@@H](C)CO)C[C@H](C)[C@@H](CN(C)C(=O)CCC(F)(F)F)OCCCC[C@H](C)O3)cc1	-26	-18
29	C[C@@H]1CN([C@@H](C)CO)C(=O)c2cccc(NC(=O)C3CCCCC3)c2O[C@@H]1CN(C)C(=O)Nc1cccc2ccccc12	2	2
30	O=C(C[C@@H]1CC[C@H](NC(=O)CC2CC2)[C@@H](CO)O1)NCc1ccc(Cl)cc1	10	13
31	C[C@@H]1CN([C@@H](C)CO)C(=O)c2cc(NC(=O)Cn3cnnn3)ccc2O[C@H]1CN(C)Cc1ccc(-c2ccccc2)cc1	-8	-7
32	C[C@@H]1CN([C@@H](C)CO)C(=O)c2cc(-c3ccccc3)cnc2O[C@@H]1CN(C)C(=O)C1CCOCC1	11	-1
33	COC(=O)c1c(CC[C@@H](CO)NC(=O)N[C@H](Cn2cc(-c3cncn3C)nn2)C(C)C)oc(C(C)=O)c1C(=O)OC	15	12
34	CN(C)C(=O)c1ccc(-c2ccc([C@H]3[C@H](CO)N4CCCCN(CCC(F)(F)F)C[C@@H]34)cc2)cc1	7	-9
35	COc1ccc(S(=O)(=O)N(C)C[C@H]2Oc3ccc(NC(=O)Nc4ccc(C(F)(F)F)cc4)cc3C(=O)N([C@H](C)CO)C[C@@H]2C)cc1	-15	-12
36	C[C@@H]1CN([C@@H](C)CO)S(=O)(=O)c2ccc(C#C[C@@H](C)O)cc2O[C@@H]1CN(C)C(=O)Cc1ccccn1	6	2
37	C/C=C/[C@@H](CCn1cc([C@H](O)c2ccccc2)nn1)[Si](C)(C)c1ccc(OC)cc1	-14	-7
38	CNC[C@@H]1Oc2c(NS(=O)(=O)c3ccc(OC)cc3)cccc2C(=O)N([C@H](C)CO)C[C@@H]1C	-8	-13
39	O=C(C[C@@H]1C[C@H]2c3cc(NC(=O)Nc4ccc(C(F)(F)F)cc4)ccc3O[C@H]2[C@H](CO)O1)NC1CCCCC1	?	·
40	O=C(C[C@H]1CC[C@@H]2[C@H](COC[C@@H](O)CN2S(=O)(=O)c2ccc(Oc3ccccc3)cc2)O1)Nc1ccccc1	?	·
41	CCCNC(=O)[C@H]1[C@H](CO)[C@H]2Cn3c(ccc(-c4cccc(F)c4)c3=O)[C@@H]1N2C(=O)CC	2	3
42	C[C@@H]1CN([C@@H](C)CO)C(=O)Cc2cc(NC(=O)Cc3cn(C)c4ccccc34)ccc2O[C@@H]1CN(C)S(=O)(=O)c1ccccc1	1	-2
43	Cc1cccc(S(=O)(=O)N2C[C@H](O)COC[C@H]3O[C@@H](CC(=O)NCCCN4CCOCC4)CC[C@@H]32)c1	11	9
44	COc1cccc(CN(C)C[C@H]2OCc3cn(nn3)CCCC(=O)N([C@@H](C)CO)C[C@H]2C)c1	1	10
45	CC(=O)N[C@@H]1CC[C@@H](CCNC(=O)C2CCCC2)O[C@@H]1CO	-12	0
46	COc1ccccc1-c1ccc([C@@H]2[C@H](C#N)N[C@H]2CO)cc1	2	2
47	O=C(N[C@@H]1CC[C@H](CCNS(=O)(=O)c2ccccc2)O[C@@H]1CO)c1cccc(F)c1	29	20
48	Cc1ccc(S(=O)(=O)N2CC[C@H]3[C@@H](CO)N(C)c4ccc(-c5ccc(C#N)cc5)cc4[C@H]32)cc1	-4	0
49	C[C@H](CO)N1C[C@H](C)[C@@H](CN(C)C(=O)Nc2ccccc2F)OCc2cn(nn2)CCCC1=O	7	5
50	CC(C)NC(=O)N1C[C@H]2[C@@H](c3ccccc31)[C@@H](CO)N2C(=O)c1ccncc1	5	-1

Pulled by compound from above (seven):
no.	Compound	Vaccinia stage	Vaccinia stage Venus
42	C[C@@H]1CN([C@@H](C)CO)C(=O)Cc2cc(NC(=O)Cc3cn(C)c4ccccc34)ccc2O[C@@H]1CN(C)S(=O)(=O)c1ccccc1	1	-2
36	C[C@@H]1CN([C@@H](C)CO)S(=O)(=O)c2ccc(C#C[C@@H](C)O)cc2O[C@@H]1CN(C)C(=O)Cc1ccccn1	6	2
41	CCCNC(=O)[C@H]1[C@H](CO)[C@H]2Cn3c(ccc(-c4cccc(F)c4)c3=O)[C@@H]1N2C(=O)CC	2	3
48	Cc1ccc(S(=O)(=O)N2CC[C@H]3[C@@H](CO)N(C)c4ccc(-c5ccc(C#N)cc5)cc4[C@H]32)cc1	-4	0
29	C[C@@H]1CN([C@@H](C)CO)C(=O)c2cccc(NC(=O)C3CCCCC3)c2O[C@@H]1CN(C)C(=O)Nc1cccc2ccccc12	2	2
26	CNC[C@H]1OCCCC[C@@H](C)Oc2ccc(NC(=O)Nc3c(C)noc3C)cc2C(=O)N([C@@H](C)CO)C[C@@H]1C	16	18
28	Cc1ccc(S(=O)(=O)Nc2ccc3c(c2)C(=O)N([C@@H](C)CO)C[C@H](C)[C@@H](CN(C)C(=O)CCC(F)(F)F)OCCCC[C@H](C)O3)cc1	-26	-18

Going on with the list:
(51) COc1ccc(S(=O)(=O)Nc2ccc3c(c2)CC(=O)N([C@H](C)CO)C[C@@H](C)[C@@H](CN(C)Cc2ccc(C(=O)Nc4ccccc4N)cc2)O3)cc1
  Vaccinia stage: 10 | Vaccinia stage Venus: 5

(52) COC(=O)[C@H]1[C@H](CO)[C@H]2Cn3c(ccc(-c4ccccc4)c3=O)[C@H]2N1Cc1ccccn1
  Vaccinia stage: -4 | Vaccinia stage Venus: 15

(53) CCNC(=O)[C@H]1[C@H](CO)[C@H]2Cn3c(ccc(-c4cccnc4)c3=O)[C@H]2N1Cc1ccc2c(c1)OCO2
  Vaccinia stage: 4 | Vaccinia stage Venus: 5

(54) C[C@@H]1CN([C@@H](C)CO)C(=O)c2cc(NS(=O)(=O)c3cn(C)cn3)ccc2O[C@@H]1CN(C)C(=O)Nc1cccc2ccccc12
  Vaccinia stage: -3 | Vaccinia stage Venus: -8

(55) Cc1ccc(S(=O)(=O)Nc2cccc3c2O[C@@H](CN(C)Cc2ccncc2)[C@H](C)CN([C@H](C)CO)C3=O)cc1
  Vaccinia stage: -3 | Vaccinia stage Venus: 10

(56) O=C(C[C@@H]1C[C@H]2c3cc(NC(=O)c4cccnc4)ccc3O[C@H]2[C@H](CO)O1)NC1CCCCC1
  Vaccinia stage: 2 | Vaccinia stage Venus: -1

(57) O=C(Nc1ccc2c(c1)OCO2)N[C@@H]1CC[C@@H](CCNC(=O)C2CCCCC2)O[C@H]1CO
  Vaccinia stage: 6 | Vaccinia stage Venus: 8

(58) CO[C@@H]1CN(C)C(=O)c2cc(NC(=O)Nc3ccccc3)ccc2OC[C@@H](C)NC[C@@H]1C
  Vaccinia stage: 7 | Vaccinia stage Venus: 0

(59) O=C([C@@H]1[C@@H](CO)[C@@H]2Cn3c(cccc3=O)[C@H]1N2C(=O)CC1CC1)N1CCc2ccccc2C1
  Vaccinia stage: 12 | Vaccinia stage Venus: 9

(60) CN1C(=O)c2cc(NC(=O)c3cnccn3)ccc2OC[C@H]2O[C@H](CC(=O)NCC3CCCCC3)CC[C@@H]21
  Vaccinia stage: 3 | Vaccinia stage Venus: -5

(61) CO[C@H]1CN(C)C(=O)c2cccc(C#N)c2OCC[C@H]2CC[C@@H](OC)[C@H](CN(C)C(=O)[C@@H]1C)O2
  Vaccinia stage: 13 | Vaccinia stage Venus: 2

(62) C/C=C/c1ccc([C@@H]2[C@@H](CNC(=O)CC)N(C(=O)CC)[C@H]2CO)cc1
  Vaccinia stage: -6 | Vaccinia stage Venus: -6

(63) CCC(=O)Nc1ccc2c(c1)C(=O)N(C)[C@@H]1CC[C@H](CC(=O)N3CCc4ccccc4C3)O[C@@H]1CO2
  Vaccinia stage: -23 | Vaccinia stage Venus: -21

(64) CC(C)C#Cc1cnc2c(c1)C(=O)N([C@H](C)CO)C[C@H](C)[C@H](CN(C)C(=O)CN1CCOCC1)O2
  Vaccinia stage: 10 | Vaccinia stage Venus: 7

Look-ups from the list:
Entry for entry 61 under Vaccinia stage Venus: 2
Entry for entry 52 under Vaccinia stage Venus: 15
Entry for entry 51 under Vaccinia stage: 10
